YopH inh: inhibitors of Yersinia enterocolitica YopH tyrosine phosphatase; inhibition, %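 (about 10 µM by stock and volumes)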; 140,000 compounds, 0.16% hits; fluorescence Ex485/Em525;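 active = inhibition of 50% or more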;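 also: controls were vehicle for no effect and minimum signal wells for full effect; inactives centre near -20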
Mtb growth: M. tuberculosis H37Rv growth inhibitors, H37Rv strain (AID 1626); M. tuberculosis H37Rv growth inhibition; higher % means a stronger effect; inhibition, % at 10 µM; hits with a dose series show IC50 in µM; 220,000 compounds, 0.95% hits;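 active = confirmed in a dose series; inconclusive = inhibition above 80% but not taken into the dose series; inactive = below 80% or under 30% at every dose of the series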;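 also: bacteria incubated seven days before Alamar blue readout; 0% = bacteria only wells and 100% = bacteria with antibiotic wells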
Mtb bLac sens: beta-lactam sensitization of Mtb H37Rv | AID 434955 | 330,000 compounds, 0.27% hits | inhibition, % at 25 µM | M. tuberculosis H37Rv growth with meropenem, percent inhibition; hits of this screen are not shown here;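 active = about 74% or more and at least 40 points above the plate without the antibiotic, then above 30% in a dose series; inconclusive = first-round hits that could not be retested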;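 also: growth measured after seven days incubation then overnight dye step; 0% = bacteria only wells and 100% = bacteria with antibiotic; twin plates without the antibiotic show which effects depend on it; some results filed as inactive read as strong as hits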
Arbovirus anti: arbovirus infection inhibition; AID 1251; inhibition, % at 10 µM; 200,000 compounds, 0.37% hits; arbovirus infection cell-based antiviral screen;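 active = inhibition from about 30%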;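 also: bluetongue infection of BSR cells; cell survival read as ATP light after 72 h; 0% = infected wells without compound and 100% = uninfected wells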
RecA intein inh: inhibitors of M. tuberculosis RecA intein splicing; cell-free RecA intein splicing, fluorescence; inhibition, %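 (about 9 µM by stock and volumes)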; 290,000 compounds, 0.75% hits; in the data active = inhibition above about 30%; inconclusive = no clear call, values can overlap the other calls;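 also: 0% = vehicle wells and 100% = reference inhibitor control wells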
Target sequence (P9WHJ3 whole entry, looked up): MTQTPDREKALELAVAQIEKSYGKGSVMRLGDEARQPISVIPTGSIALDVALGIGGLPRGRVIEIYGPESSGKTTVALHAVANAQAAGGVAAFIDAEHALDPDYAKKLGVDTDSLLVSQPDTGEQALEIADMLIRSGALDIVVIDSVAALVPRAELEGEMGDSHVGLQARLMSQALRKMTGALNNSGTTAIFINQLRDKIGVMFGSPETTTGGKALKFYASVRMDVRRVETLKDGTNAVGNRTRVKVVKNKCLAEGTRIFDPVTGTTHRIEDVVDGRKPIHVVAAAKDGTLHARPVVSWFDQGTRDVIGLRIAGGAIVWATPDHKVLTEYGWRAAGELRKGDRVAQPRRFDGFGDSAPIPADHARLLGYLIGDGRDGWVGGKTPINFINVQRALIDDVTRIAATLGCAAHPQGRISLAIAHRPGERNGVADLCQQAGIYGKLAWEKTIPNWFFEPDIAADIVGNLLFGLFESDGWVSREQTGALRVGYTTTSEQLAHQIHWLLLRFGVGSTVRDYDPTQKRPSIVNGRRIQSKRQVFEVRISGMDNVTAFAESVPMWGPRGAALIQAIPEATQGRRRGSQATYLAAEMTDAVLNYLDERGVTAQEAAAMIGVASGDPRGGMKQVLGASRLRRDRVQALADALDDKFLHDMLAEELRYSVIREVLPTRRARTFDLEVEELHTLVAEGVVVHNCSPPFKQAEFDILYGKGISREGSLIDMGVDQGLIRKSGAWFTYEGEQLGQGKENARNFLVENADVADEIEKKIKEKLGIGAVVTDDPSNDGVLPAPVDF
Arbovirus anti repeat: further read-out of Arbovirus anti, marked with its call; inhibition, %; measured here: 10K subset replicate screen; many hits read low in the repeat;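 first of two repeat runs on a subset; 0% = infected and 100% = uninfected wells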
The depositor's hits bear a star; ? = inconclusive; · = no result given.

SMILES | YopH inh | Mtb growth | Mtb bLac sens | Arbovirus anti | RecA intein inh | others
COc1ccc(C(C[N+](=O)[O-])c2c(-c3ccccc3)cc3ccccn23)c(OC)c1 (stereo not given) | -1 | 3% | 99 | -11 | -3.2
CC(C)=CCC(C)(C)C1OCCN1C(=O)Nc1ccccc1 (stereo not given) | 3 | -10% | 9 | 7 | 1.3
CCOc1cc(-c2cc(N)n[nH]2)cc(OCC)c1OCC | -25 | · | -9 | -3 | 1.9 | Arbovirus anti repeat=-2
Cc1ccc(-c2noc(CN(C(=O)CCCCCN3C(=O)c4ccccc4C3=O)C(C)C)n2)cc1 | 35 | 5% | -8 | -1 | 9.0
COc1ccccc1NC(=O)/C=C\C(=O)O | · | 4% | -2 | 8 | 3.1
CN/N=C(\Cc1nc2ccccc2[nH]1)c1ccc([N+](=O)[O-])cc1 | · | ? | · | 3 | ·
CC(C)N(Cc1nccn1C)C(=O)CC1C(=O)NCCN1Cc1ccc(F)c(F)c1 (stereo not given) | · | · | 1 | · | -5.0
COc1ccc(NC(=O)CCC(=O)OCC(=O)c2ccc(Oc3ccc([N+](=O)[O-])cc3)cc2)cc1 | -27 | -6% | -2 | -4 | -1.1
O=C(Nc1ccc(Br)cc1)c1cccn1-c1ncc(C(F)(F)F)cc1Cl | -14 | 5% | -4 | -22 | 6.2
CC/C(=N\NC(=O)Nc1nonc1N)c1ccc(OC)c(OC)c1 | · | -3% | -12 | · | -0.9
COc1ccc(OC)c(CNC(=O)CCSCc2ccc(F)cc2Cl)c1 | · | · | -6 | · | 5.8
COC(=O)c1cccc(NC(=O)CSc2nnc(C)n2Cc2ccccc2)c1 | -39 | -7% | ? | 2 | -5.7
NS(=O)(=O)c1ccc(CCNC(=O)C(=O)NCC2OCCN2C(=O)c2ccc3c(c2)OCO3)cc1 (stereo not given) | · | 4% | 4 | 2 | 1.1
CC(C)C(=O)NNc1nc2ccccc2s1 | -17 | -6% | 8 | 2 | 2.3
CC(C)/C(C=O)=C(/NC1CCCCC1)c1ccccc1 | · | · | 30 | · | 2.6
Cc1ccc(S(=O)(=O)N2CCC(C(=O)N3CCC[C@H]3C(=O)NCC(C)C)CC2)cc1 | · | · | -3 | · | -4.0
Cc1ccccc1C(=O)N1CCC(C(=O)N(CC(C)C)c2c(N)n(Cc3ccccc3)c(=O)[nH]c2=O)CC1 | · | · | 3 | · | -0.8
CCN(CC)S(=O)(=O)c1cccc(C(=O)NC(Cc2c[nH]c3ccccc23)c2nnc3n2CCC3)c1 (stereo not given) | -30 | -2% | 7 | 0 | -1.4
O=C(CCl)N(Cc1cccc([N+](=O)[O-])c1)c1cccc(Cl)c1 | · | 2% | · | -30 | 88*
CC(=O)Oc1ccc(N2C(=O)CC(N3CCOCC3)C2=O)cc1 (stereo not given) | -6 | -4% | 4 | 0 | -5.0 | Arbovirus anti repeat=9
COc1ccc2oc(C(=O)OCC(=O)NC3CCCCC3)c(C)c2c1 | · | · | -10 | · | 1.8
CC(=O)Nc1nc2ccc(Br)cc2s1 | -38 | · | -6 | -12 | -5.1
CC(Nc1nc(Nc2ccc(F)cc2)nc(SCC(N)=O)n1)c1ccccc1 (stereo not given) | · | · | 15 | · | 8.5
O=C(C[n+]1ccccc1)Nc1ccc(Cl)c([N+](=O)[O-])c1 | · | · | 0 | · | -3.5
O=C(NCCc1ccccc1)c1cc(-c2ccco2)on1 | -19 | 3% | -9 | -11 | -1.1

Continuation.
SMILES | YopH inh | Mtb growth | Mtb bLac sens | Arbovirus anti | RecA intein inh | others
O=C(C1CCN(S(=O)(=O)N2CCOCC2)CC1)N1CCN(c2ccc(F)cc2)CC1 | · | -1% | 2 | 6 | 1.0
Cc1c(P(=S)(c2ccccc2)c2ccccc2)[n+]2ccccc2n1C | · | 3% | · | 4 | 1.9
Cn1cccc1-c1nc2ccccc2n1Cc1ccccc1 | 9 | 6% | 7 | 4 | 2.2
O=S(=O)(NCC1CCCO1)c1ccc(S(=O)(=O)N(Cc2ccc(F)cc2)Cc2ccccn2)cc1 (stereo not given) | -23 | -8% | 2 | 0 | -8.5
Cc1ccc(-c2nnc3ccc(SCC(=O)N4CCCc5ccccc54)nn23)cc1 | -2 | 1% | 10 | -12 | -0.3
Cc1ccc(C)c(-c2nc3cc(N)ccc3o2)c1 | -25 | 77% | 99 | -14 | -10
Cn1cnc(S(=O)(=O)Nc2ccc3c(c2)OCCO3)c1 | · | 3% | -13 | · | -4.6
COc1ccc(/C=N/NC(=O)COc2ccccc2-c2ccccc2)cc1 | -19 | -2% | -6 | -32 | 4.6
CC(C)(C)c1nc(N2CCN(C(=O)c3ccco3)CC2)c2nnn(Cc3ccccc3Cl)c2n1 | -29 | 22% | 95 | -35 | 12
CCC(=NCCCN(CC)CC)c1c(O)n(-c2ccccc2)c(=O)[nH]c1=O | -15 | 2% | 5 | 1 | -4.9
O=[N+]([O-])c1ccc(CN2CCSCC2)cc1 | · | -1% | 1 | 4 | 2.3
N#Cc1cnn2c1nc(N1CCCCC1)c1ccccc12 | -26 | 3% | 10 | -8 | -2.9
CCOCCCNC(=O)c1cn(C)c2ccc(S(=O)(=O)N(C)C3CCCCC3)cc2c1=O | -28 | · | · | -4 | · | Arbovirus anti repeat=-2
OCC1(Cc2ccccc2)CCN(C2CCN(c3ccccc3F)CC2)CC1 | · | 4% | -9 | -14 | -1.5
Cc1nnsc1NC(=O)OCC(C)(C)C | -9 | -5% | 4 | 3 | -10
O=C(NCCc1cccc(F)c1)C1CCC(=O)N(CCCc2ccccc2)C1 (stereo not given) | · | · | -1 | · | 2.7
CCn1c(SCC(=O)Nc2ccc3c(c2)OCO3)nnc1C(C)C | · | · | -3 | · | 0.9
CSc1nc(C)cc(Oc2ccccc2)n1 | · | -2% | 0 | -2 | 6.3
CCN(CC)C(=O)CSc1ncnc2sc(C)c(C)c12 | · | -2% | -1 | 13 | -1.8
CN(CC(=O)Nc1ccc(F)c(F)c1F)C(=O)c1ccc2c(c1)S(=O)(=O)N=C1CCCCCN12 | · | · | -11 | · | -0.2
CCC(=O)NCCc1nc2cc(NC(=O)c3ccco3)ccc2n1C | · | · | -4 | · | 2.2
COCCNC(=O)C(C)N(c1ccc(OC)cc1)S(C)(=O)=O (stereo not given) | -11 | -7% | -1 | -4 | 1.6
CCC(=O)c1ccc(OCC(=O)OCC(=O)NC2CCCCCCC2)cc1 | · | · | -8 | · | -3.6
COCCCN1C(=O)/C(=C/c2ccc(CNS(=O)(=O)c3ccccc3)o2)C(C(=O)OC)=C1C | · | 1% | 7 | 2 | -2.6
Cc1cccc(OCc2nnc(SCn3nnc4ccccc4c3=O)o2)c1 | -13 | -9% | 1 | 6 | 1.5

Next records
SMILES | YopH inh | Mtb growth | Mtb bLac sens | Arbovirus anti | RecA intein inh | others
CN(C)CCCNC(=O)/C(=C\c1ccc(-c2ccc(Br)cc2)o1)NC(=O)c1ccccc1 | -15 | 7% | 9 | -35 | 1.2
COc1cc(/C(C)=C/c2ccccc2)c2c(c1)oc1ccccc12 | · | · | 20 | · | 24
COc1ccc(NC(=S)N2CCN(C(=O)c3ccco3)CC2)cc1OC | · | · | -1 | · | -0.3
Cc1nonc1C1CCCN1Cc1cn[nH]c1-c1ccc(-c2ccccc2)cc1 (stereo not given) | · | 18% | 27 | -7 | 2.2
O=C(CCCn1c(SCc2ccccc2F)nc2ccccc2c1=O)NCC1CCCO1 (stereo not given) | · | -3% | 0 | -19 | -2.0
CC1(c2ccc3ccccc3c2)NC(=O)NC1=O (stereo not given) | · | · | -4 | · | 0.6
CCOC(=O)C(=O)Nc1cc(C)nn1-c1nc2ccccc2[nH]1 | · | -9% | 17 | · | 0.9
O=C(Cn1nc(-c2ccc3c(c2)OCCO3)ccc1=O)Nc1ccc(-n2cnnn2)cc1 | · | 1% | 3 | -2 | -0.2
COc1cc(/C=N/NC(=O)C2C3CCCCC32C)cc(Br)c1O (stereo not given) | -41 | 6% | 14 | -2 | 2.0
CCC(Oc1nc2ccccc2nc1-c1ccccc1NC(C)=O)C(=O)c1ccccc1 (stereo not given) | -34 | -4% | -3 | -1 | -0.7
Cc1ccc(-n2c(O)c(C=NCc3ccccn3)c(=O)[nH]c2=S)cc1 | · | 2% | -1 | · | -1.6
Cc1cccc(OCCNc2ccc(C(F)(F)F)cc2[N+](=O)[O-])c1 | -25 | 12% | 2 | 6 | -1.6
CC1CCN(CC(=O)N2CCCc3c2c(=O)oc2ccc(OCc4ccccc4)cc32)CC1 | -14 | 24% | 99 | -22 | 4.6
C#Cc1ccc([C@@H]2C=C(C(=O)NC3CC3)O[C@H](OCCCCO)C2)cc1 | · | -6% | -5 | · | 1.6
CCN(CCCNC(=O)CNC(=O)c1nn(-c2ccc(OC)cc2OC)c(=O)c2ccccc12)c1cccc(C)c1 | · | · | -9 | · | 2.2
O=C(Nc1nc2c(s1)CCCC2)Oc1ccccc1 | -95 | -3% | 4 | 4 | 0.2
COc1cc(/C=C(/C#N)c2nc3ccccc3[nH]2)ccc1Oc1ncccc1[N+](=O)[O-] | -36 | -2% | 0 | -6 | -2.8
Cc1cccc(NCc2cc(Cl)ccc2O)n1 | -30 | 4% | 1 | -2 | 3.2
CC(CNC(=O)COc1ccccc1)OC(=O)Nc1ccc(Cl)c(Cl)c1 (stereo not given) | -32 | 35% | 10 | -33 | 5.9
COC(=O)/C=C1\NCCSC1=O | -18 | 4% | -7 | 3 | 4.6
COCCN1C(=O)N[C@@H](c2cccs2)C(C(=O)OC)=C1C | -26 | -7% | -2 | 2 | -1.5
CCOC(=O)c1nnc(-c2ccccc2)nc1Oc1ccc(Cl)cc1 | -6 | 64% | 98 | 12 | 20
Cc1cccc(/C=N/NC(=O)c2ccc(NC(=O)c3cccc(Cl)c3)cc2)n1 | · | · | 2 | · | 1.9
OCCC1CN(CCCn2cccn2)CCN1C1CCCCC1 (stereo not given) | · | -5% | · | -2 | 0.3
CCc1ccccc1NC(=O)COC(=O)c1cccs1 | · | · | -2 | · | -1.0

(more compounds)
SMILES | YopH inh | Mtb growth | Mtb bLac sens | Arbovirus anti | RecA intein inh | others
N#C/C(=C\c1cccc([N+](=O)[O-])c1)C(=O)NCC1CCCO1 (stereo not given) | · | 5% | -3 | -4 | 3.1
COc1cc2c(cc1OC)C(C)N(C(=O)[C@@H](NC(=O)c1ccccc1)C(C)C)CC2 (stereo not given in full) | · | · | -1 | · | 7.6
Cc1ccccc1NC(=O)c1nn(C)c(C(=O)Nc2ccccc2C)c1[N+](=O)[O-] | · | · | 3 | · | -6.7
COCCNC(=O)/C(C#N)=C/c1cc(Br)c(O)c(OC)c1 | · | 1% | -5 | 4 | -4.1
CCOc1ccccc1C(=O)Nc1cc(Cl)ccc1O | -21 | 6% | 22 | -30 | 13
O=C(c1ccc2c(=O)n(Cc3ccco3)c(=S)[nH]c2c1)N1CCN(c2ccccc2)CC1 | -15 | · | 3 | -5 | ·
O=C(CC(Cc1ccccc1)C(=O)O)Nc1ccc(Cl)c(Cl)c1 (stereo not given) | · | · | -1 | · | 1.1
Cc1nn(-c2ccccc2)c(N2CCCC2)c1/C=N/NC(=O)c1ccccc1O | -5 | -7% | 59 | -5 | -0.8
CN1CCN(C(=O)C2CCC(C)(C(=O)O)C2(C)C)CC1 (stereo not given) | · | -9% | -3 | 1 | 0.5
Cc1ccc2nc(C)c(CN3CCN(c4ccc([N+](=O)[O-])cc4Cl)CC3)n2c1 | · | · | 96 | · | 5.7
CC(C)c1ccc(C2CC(c3ccc(Br)cc3)=NN2C(N)=S)cc1 (stereo not given) | -30 | -4% | 6 | 3 | 0.5
O=[N+]([O-])c1ccc(N2CCN(c3ccccc3F)CC2)c(S(=O)(=O)N2CCOCC2)c1 | -21 | 5% | 2 | 11 | 2.4
CC12CCC(C(=O)Nc3ccccc3Cl)([C@H](Br)C1=O)C2(C)C (stereo not given in full) | · | 5% | -4 | · | -1.4
O=C1CC(N2CCN(c3ccccc3)CC2)C(=O)N1c1ccc(Cl)cc1 (stereo not given) | · | · | 4 | · | 1.1

An excerpt; rates above refer to the full screens.
